Source: PubChem BioAssay (National Center for Advancing Translational Sciences (NCATS))
Rango release inh – qHTS Assay for Inhibitors of RanGTP induced Rango (Ran-regulated importin-beta cargo) - Importin beta complex dissociation; Biochemical FRET Rango-importin beta, RanGTP-induced dissociation; 340,000 compounds, 0.071% hits; Snurportin-1 (Homo sapiens) + GTP-binding nuclear protein Ran (Homo sapiens) + Importin …; Potency, µM (doses to about 46.1 µM), for inactives: at the highest dose activity change, negative = inhibition; active means falling FRET ratio curve, often poorly fitted, with flat reads before Ran was added; inconclusive means other falling curves, or compound fluorescence or quenching; inactive means flat or rising ratio curve;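 note: potency is the fitted concentration of half-maximal effect; % of control where 0% means no effect; nearly all actives have a fitted effect of over 45% in size; -100% = wells without RanGTP and RCC1; the record marks most hits as doubtful in a second field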
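Recombinant Rango FRET biosensor (EYFP–snurportin 1 IBB–cerulean CFP10) at 0.1 uM premixed with 0.25 uM importin beta in PBS, 1 mM DTT, 0.02% Tween-20, 0.1% BSA. Compound added 5 min; RanGTP-RCC1 (0.6 uM Ran, 2 mM GTP, 0.2 uM RCC1) then triggers release, read at 45 min.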
Rango complex inh – qHTS Assay for Inhibitors of Rango (Ran-regulated importin-beta cargo) - Importin beta complex formation | Importin subunit beta-1 (Homo sapiens), Q14974 | Rango CFP/YFP FRET sensor + importin beta, 45 min | Potency, µM (doses to about 92.2 µM), inactives show at the top dose inhibition of complex formation | 340,000 compounds, 0.031% hits | AID 540263, 2011; active = rising FRET ratio curve, often small or poorly fitted; inconclusive = mostly compound fluorescence or quenching in the first reads; inactive = flat curves in all reads;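 note: potency is the fitted concentration of half-maximal effect; 0% = DMSO wells and 100% = buffer wells lacking importin beta; nearly all actives have a fitted effect of over 15% in size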
Target sequence (Q14974 whole entry, looked up): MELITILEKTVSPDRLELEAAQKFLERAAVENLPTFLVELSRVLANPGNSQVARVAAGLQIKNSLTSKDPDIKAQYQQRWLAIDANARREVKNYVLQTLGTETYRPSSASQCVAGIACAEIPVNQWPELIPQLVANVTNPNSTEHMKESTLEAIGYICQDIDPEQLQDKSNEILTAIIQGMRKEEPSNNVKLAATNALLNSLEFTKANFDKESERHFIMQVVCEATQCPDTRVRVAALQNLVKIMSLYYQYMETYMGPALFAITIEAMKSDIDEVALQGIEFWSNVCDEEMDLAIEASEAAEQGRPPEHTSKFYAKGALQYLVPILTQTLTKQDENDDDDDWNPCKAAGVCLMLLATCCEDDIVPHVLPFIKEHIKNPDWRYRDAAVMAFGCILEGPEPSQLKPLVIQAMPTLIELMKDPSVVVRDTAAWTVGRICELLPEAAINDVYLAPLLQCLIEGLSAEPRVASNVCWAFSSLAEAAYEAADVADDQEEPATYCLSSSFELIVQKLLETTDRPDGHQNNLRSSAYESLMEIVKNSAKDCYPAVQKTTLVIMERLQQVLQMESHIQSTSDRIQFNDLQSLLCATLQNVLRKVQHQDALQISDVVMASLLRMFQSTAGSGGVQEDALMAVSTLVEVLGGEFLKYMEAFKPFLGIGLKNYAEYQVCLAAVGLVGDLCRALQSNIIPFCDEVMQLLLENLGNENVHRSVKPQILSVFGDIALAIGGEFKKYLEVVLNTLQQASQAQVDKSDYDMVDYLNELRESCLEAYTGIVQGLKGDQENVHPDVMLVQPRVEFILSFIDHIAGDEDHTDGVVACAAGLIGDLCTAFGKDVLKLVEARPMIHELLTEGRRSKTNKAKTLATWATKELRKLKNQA
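Inhibition scored from the CFP 486 nm/YFP 530 nm FRET ratio 45 min after adding 0.125 microM importin beta to 50 nM Rango biosensor preincubated 5 min with compound (room temperature, PBS with DTT, Tween-20, BSA). No-importin wells as positive control.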
GLA inh pH 4.5 – qHTS Assay for Inhibitors of Human alpha-Galactosidase at pH 4.5; Alpha-galactosidase A (Homo sapiens), P06280; purified enzyme, 4-MU-alpha-Gal fluorescence, pH 4.5; activity change, negative = inhibition, % at 105 µM; 230,000 tested, under 10 active; inconclusive = small, poorly fitted or top-dose-only inhibition, or a rising curve; inactive = flat fitted curve, though single readings scatter; no compound was filed as active;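 note: 0% = full activity with enzyme and -100% = basal without enzyme; dose as in the result columns while the protocol names 77 µM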
miR-21 reporter – qHTS Assay for Modulators of miRNAs and/orActivators of miR-21; 340,000 tested, under 10 active; HeLa miR-21 FLuc reporter, luciferase, 48 h; Potency, µM (series often up to 38.3 µM), for inactives: at the highest dose reporter change, positive = more light; active = well fitted rising curve with a large enough effect; inconclusive = small, poorly fitted or top-dose-only effect; inactive = no such curve, though single readings can be large or run the other way;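 note: % of control where 0% means no effect; miR-21 action dims this reporter so a rising signal means less miR-21 action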
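HeLa cells endogenously expressing miR-21, stably carrying CMV-driven firefly luciferase with a downstream miR-21 binding site, 2000 cells/well. Titrations up to approximately 40 uM, 48 hours; luciferase luminescence read.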
Starred values were filed as active, the others as inactive; ? = inconclusive; / = no result given; & = joins results of further samples. A portion of the library. The share of hits here may be higher or lower than overall.

compound	GLA inh pH 4.5	Rango complex inh	Rango release inh	miR-21 reporter
COc1ccccc1C(=O)COC(=O)CSCC(=O)Nc1cc(C)on1	/	-2.8%	10%	/
COCC(C)n1c(C)cc(C(=O)CSc2ccc(NC(C)=O)cc2)c1C (configuration not stated)	0	-0.5%	-2%	-37%
O=C(COC(=O)COc1ccccc1[N+](=O)[O-])Nc1ccc2c(c1)OCO2	/	0.4%	0%	/
COC(=O)c1c(NC(C)=O)sc(C(=O)Nc2ccccc2C)c1C	8	?	1%	-13%
O=c1c2ccccc2ncn1CCc1ccncc1	/	-3.7%	5%	/
CCC(C)NCC(=O)Nc1ccc([N+](=O)[O-])cc1C(=O)Nc1ccccc1F (configuration not stated)	0	-4.4%	0%	5%
CCN(Cc1ccccc1)S(=O)(=O)c1ccc(C(=O)N(CCCN(C)C)c2nc3c(F)cccc3s2)cc1	/	1.6%	0%	-1%
CCOc1ccccc1/C=N/NC(=O)C[n+]1ccccc1	/	0.5%	-5%	/
COc1ccc(CN(C)CC(=O)Nc2sc3c(c2C#N)CCC3)cc1OC	0	-2.0%	-8%	0%
Cc1ccc(C)c(SCc2nc3sc(C(=O)O)c(C)c3c(=O)[nH]2)c1	0	0.2%	-9%	0%
COc1ccc(N2CCN(CC(=O)Nc3cc(C)on3)CC2)cc1	10	3.2%	-1%	-5%
N#Cc1c(SCC(N)=O)nc2c(c1-c1ccncc1)CCCC2	3	-2.0%	11%	-1%
O=C(NNS(=O)(=O)c1ccc(F)cc1F)c1csc(-c2cccnc2)n1	-4	5.7%	21%	-1%
C/C(CC(=O)Nc1cccnc1)=N\NC(=O)C(C)Oc1ccc(Cl)cc1Cl (configuration not stated)	-4	4.6%	-17%	-4%
CCN1CCCC1CNC(=O)C(=O)Nc1cccc(OC)c1 (configuration not stated)	6	0.5%	9%	-13%
O=C1CC2(CCN(C(=O)c3ccc(Br)cc3)CC2)Oc2ccccc21	/	-1.1%	4%	/
CCNc1nc(N2CCCC2)nc(N2CCCC2)n1	6	4.2%	7%	-1%
COC(=O)CCCC(=O)NC1CCCc2c1cnn2-c1ccc(F)cc1F (configuration not stated)	/	0.0%	-4%	2%
CC(NC(=O)Cc1ccccc1)C1COc2ccccc2O1 (configuration not stated)	4	0.4%	0%	-9%
Cc1cc(C(=O)CSc2nc3ccccc3c(=O)[nH]2)c(C)n1CC1CCCO1 (configuration not stated)	7	5.1%	-6%	3%
OC1CCN(Cc2cn(Cc3ccccc3)nc2-c2cc3ccccc3o2)CC1	-9	-0.8%	0%	-28%
Cc1cc(SCC(=O)NCCC2=CCCCC2)nc2ccccc12	14	2.3%	2%	0%
CCOC(=O)c1ccccc1NC(=O)CSc1ccccc1	0	-0.5%	3%	-10%
CCOC(=O)C1CCCN(C(=O)c2ccc(C(=O)c3ccccc3)cc2)C1 (configuration not stated)	/	-3.7%	0%	/
CCCCCC1CC(=O)C=C(C)C1C(=O)OC (configuration not stated)	5	1.0%	17%	-2%
COc1ccc(CC(=O)NCc2n[nH]c(=S)n2-c2ccc(F)cc2)cc1	0	-1.4%	7%	-2%
S=c1nc[nH]c2c1[nH]c1ccc(Cl)cc12	-4	-0.5%	16%	-16%
O=C(N/N=C/c1cccs1)c1cnccn1	-1	-0.7%	-12%	-18%
CCC(C(=O)Nc1c(C)cc(C)cc1C)N1CCCCCC1 (configuration not stated)	/	0.3%	2%	-2%
O=C(c1cc(-c2ccc(O)cc2)on1)N1CCc2ccccc2C1	3	10%	-5%	-45%
O=C(NCc1ccc2c(c1)OCO2)c1ccc(CS(=O)(=O)c2cccc(C(F)(F)F)c2)o1	-7	-4.9%	8%	7%
COc1cc2c(cc1OC)[C@H](C)N(C(=O)NCc1ccccc1)CC2	/	5.2%	-5%	24%
CC(C)(CSc1nncn1N)NS(=O)(=O)c1ccc(Cl)cc1	0	-0.8%	0%	-6%
O=C(NCCCN1CCOCC1)C(c1ccccc1)c1ccccc1	/	4.4%	3%	3%
Cc1nnc(SCC(=O)NCc2cccs2)n1-c1ccccc1	-21	0.0%	2%	-3%
CC(C)[C@H](NC(=O)N1CC(=O)Nc2ccccc21)C(=O)N1CCC(C(=O)O)CC1	/	-2.0%	9%	-6%
COc1ccc(S(=O)(=O)N(Cc2ccccc2)c2ccccc2C(=O)Nc2ccccc2C(=O)NCc2ccco2)cc1	-2	0.0%	10%	-5%
O=C(CNC(=O)c1cc(S(=O)(=O)N2CCOCC2)ccc1N1CCCC1)Nc1ccc(F)c(F)c1	/	0.3%	-13%	/
COc1cccc(/C=C2\SC(=S)N(CCCC(=O)N3CCCCC3)C2=O)c1	/	2.1%	-10%	11%
CC1(C)CC(NC(=O)c2ccccc2NS(=O)(=O)c2ccc(Br)cc2)CC(C)(C)N1	/	-2.5%	1%	/
COc1ccc(S(=O)(=O)N2CCOCC2)cc1NC(=O)CN1C(=O)NC2(CCCCC2C)C1=O (configuration not stated)	/	2.5%	1%	/
CCc1cccc(C)c1NC(=O)c1ccoc1C	9	0.1%	8%	-5%
O=C(c1ccc(=O)[nH]c1)N1CCN(S(=O)(=O)c2cc(C(F)(F)F)ccc2Cl)CC1	/	3.5%	-8%	5%
O=C(O)c1ccc2c(c1)C(=O)N(N1C(=O)c3ccccc3C1=O)C2=O	-12	2.3%	-18%	-10%
CC1Cc2nc(SCC(=O)N3CCN(c4ccccc4)CC3)n(CCc3ccccc3)c(=O)c2S1 (configuration not stated)	-11	2.9%	3%	19%
Cc1cc(NC(c2cccnc2)c2c(C)[nH]c3ccccc23)no1 (configuration not stated)	3	?	-17%	-4%
O=C1CCC(C(=O)N2CCC(CO)(Cc3ccc(Cl)cc3)CC2)=NN1	0	-1.1%	7%	-2%
CSc1ccc(-c2sc(Nc3cccc4ccccc34)n[n+]2-c2ccccc2)cc1	/	-2.8%	1%	-5%
CS(=O)(=O)N(CCC#N)Cc1ccc(/C=C2\C(=O)Nc3ccccc32)o1	-5	-0.4%	2%	23%
CN1C(=O)/C(=C/c2ccc(-c3ccccc3[N+](=O)[O-])o2)SC1=Nc1ccc(Cl)c(C(=O)O)c1	-10	4.1%	4%	-20%
O=c1[nH][nH]c(C(F)(F)F)c1C=Nc1ccccc1	5	-2.1%	-15%	1%
COc1ccc(NC(=O)Cc2ccccc2)cn1	13	-2.1%	2%	-8%
CC1CCC(NC(=O)c2ccc3c(c2)S(=O)(=O)c2ccccc2C3=O)CC1 (configuration not stated)	/	-1.5%	26%	/
CCOC(=O)C1=C(C)NC2=C(C(=O)CCC2)C1c1ccsc1 (configuration not stated)	7	/	/	0%
Cc1nnc(N/N=C/c2ccc(-c3ccc(Br)cc3)o2)n1N	-9	-3.9%	-2%	-12%
O=C(c1ccccc1)N1CCC(CC2CC(c3ccc(Cl)cc3)=NO2)(C(=O)NCC2CCCCC2)CC1 (configuration not stated)	/	0.8%	6%	0%
O=C1C(=O)N(c2ccccc2)c2ccccc21	-8	-0.3%	2%	-2%
CC1CCN(C(=O)CNC(=O)c2ccc(Cl)cc2Cl)CC1	4	2.7%	-10%	-52%
Cn1c(=NC(=O)CS(=O)(=O)c2ccccc2)sc2ccccc21	/	5.1%	12%	/
COC(=O)N/N=C/c1cc([N+](=O)[O-])cc(Br)c1O	-11	0.5%	7%	1%

New compounds follow.
compound	GLA inh pH 4.5	Rango complex inh	Rango release inh	miR-21 reporter
CCN(C(=O)C1=COCCO1)c1nc2c(C)cccc2s1	/	4.0%	28%	/
CC(C)N1CCN(Cc2ccc(-c3ccccc3Cl)o2)CC1CCO (configuration not stated)	-1	-1.0%	2%	0%
O=C(CN1CCN(S(=O)(=O)c2ccccc2)CC1)NC(=O)NCc1ccccc1	-5	0.2%	0%	-5%
Cc1c(C(=O)OCC(O)=C(C#N)c2nc3ccccc3[nH]2)oc2ccc(Br)cc12	/	2.9%	-10%	/
CC1CCCC(C)N1C(=O)CN1c2cccc3cccc(c23)S1(=O)=O (configuration not stated)	/	5.7%	-20%	/
Cc1ccc(CNc2ncnc3cc(Cl)ccc23)cc1	/	3.5%	24%	21%
CCCc1nc2oc3c(=O)[nH]cnc3c2c2c1COC(C)(C)C2	-5	0.4%	-17%	2%
O=C(NC1CC1)C(=O)c1c(-c2ccccc2)[nH]c2ccccc12	5	2.6%	-9%	-3%
Cn1nc(C(F)(F)F)c(CO)c1Sc1ccc(F)cc1	-10	2.3%	1%	1%
CC1CCCC(C)N1C(=O)c1cccc2c1-c1ccccc1/C2=N/O (configuration not stated)	1	2.3%	25%	20%
Cc1cc(C)cc(NC(=O)N2CCN(S(C)(=O)=O)CC2)c1	-4	-0.2%	-3%	0%
Cc1ccc(SCc2ccc(C(=O)Nc3ccccc3C(=O)NC(C)C)cc2)cc1	-5	-1.7%	25%	-6%
O=C(CSC1=NCCS1)Nc1ccnc2ccccc12	-2	0.0%	10%	13%
CCC(=O)NCCCCCCNC(=O)CC	2	7.2%	1%	-2%
O=C(Nc1cc(C(F)(F)F)ccc1Cl)C(Sc1nnc(-c2cccs2)o1)c1ccccc1 (configuration not stated)	-10	1.8%	26%	-23%
CCOC(=O)C(C)Sc1nnc(CNC(=O)c2ccc(OC)cc2)n1C1CCCCC1 (configuration not stated)	-12	-4.4%	-1%	-1%
O=C(NCCn1ccc2ccccc21)c1ccc(S(=O)(=O)N2CCCCC2)cc1	-2	1.6%	-1%	16%
CCCCN(CCCC)CCNC(=O)c1cn(C)c2ccc(S(=O)(=O)N3CCCC3)cc2c1=O	/	1.3%	-5%	-1%&-6%
Cc1c(C(=O)NCc2ccc3c(c2)OCO3)cccc1[N+](=O)[O-]	14	0.0%	8%	-3%
Cc1ccc(C)c(CN2C(=O)COc3ccccc32)c1	/	-0.6%	-10%	-1%
CCOC(=O)C1=CN(Cc2cccc(I)c2)S(=O)(=O)N(C)C1C (configuration not stated)	/	-1.8%	-13%	/
O=C(NCc1ccccc1C(F)(F)F)C1CCC(=O)N(C2CC2)C1 (configuration not stated)	/	-2.2%	1%	-1%
CC(NC(=O)CCc1nnc(CCCc2ccccc2)o1)c1ccccc1 (configuration not stated)	-1	1.2%	2%	-40%
Cc1ccc(S(=O)(=O)NC(=O)NC(=O)N(C)S(=O)(=O)c2ccc(C)cc2)cc1	-2	-1.2%	-7%	-2%
CCOc1ccccc1NC(=S)Nc1ncccc1C	-2	?	-13%	-3%
COc1ccc(C(=O)CSC2=NS(=O)(=O)c3cc(Cl)ccc3N2)cc1	/	1.0%	37%	/
Cc1cc(C)c(C)c(S(=O)(=O)NC2CCCCC2)c1C	/	-0.7%	1%	2%
Cc1ccc(Nc2nc3c([nH]2)c(=O)[nH]c(=O)n3C)cc1	0	-2.5%	0%	0%
CCOC(=O)c1cccc(NS(=O)(=O)Cc2ccccc2)c1	6	-1.9%	-5%	-1%
COc1ccc(C(=O)NC2CCN(CC(=O)N3CCCCC3)CC2)cc1	/	0.1%	-1%	1%

Results in GLA inh pH 4.5 and Rango release inh, for two of the compounds above:
Molecule	GLA inh pH 4.5	Rango release inh
Cc1cc(C)c(C)c(S(=O)(=O)NC2CCCCC2)c1C	/	1%
O=C(CSC1=NCCS1)Nc1ccnc2ccccc12	-2	10%
